Source: PubChem BioAssay
HNF4A DNA FP: change in binding of human HNF4 alpha to DNA | HNF4a-FITC DNA binding, fluorescence polarization, 1 h | hit rate 0.3% among 360,000 | P41235 | AID 1224865 | activity change, % at 10 µM; in the data active = activity change above about 30%, passing the limit was not always enough;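 also: controls were the assay level and a saturating level of protein; the project sought stronger binding though the title names inhibitors; some compounds called inactive have numbers as strong as hits; positive values seem to mean higher polarization but the record does not say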
Bfl-1 A1 inh: inhibitors of the anti-apoptotic protein A1, read as caspase activation. AID 2462. caspase activation, % (concentration not given with the values). hit rate 0.066% among 330,000. MEF A1-2A-BIM cells, Caspase-Glo 3/7 luminescence, 3 h; percent of clofoctol response, vehicle zero;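 active = over half of replicate activation scores above 10%, or exactly half above 10 with the replicate mean above 10; inconclusive = replicate mean below 10 yet half the replicates above 10; inactive = over half of replicates below 10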;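 also: wells of about 30 µL received 50 nL stock; many hits fall short of the cut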
Vif TR-FRET: HIV-1 Vif–A3G interaction blockers – biochemical, TR-FRET, GST-Vif 1-94, biotin-A3G peptide, dose response retest, primary screen (AID 1117319). TR-FRET GST-Vif / biotin-A3G peptide binding; higher % means a stronger effect; test concentration not given here; strong numbers were not always called active. inhibition, %; hits with a dose series show IC50 in µM. hit rate 0.57% among 260,000;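 active = above the screen mean plus three standard deviations and confirmed in dose response; inconclusive = results disagree or hit not tested in dose response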;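 also: Vif residues 1-94 fused to GST binding biotinylated APOBEC3G peptide 110-148; 0% = full assay without inhibitor and 100% = GST in place of GST-Vif; retest series ran down from 100 µM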
LANA-H2B inh: blocks KSHV LANA binding to histone H2A/H2B. Q9QR71. cell-free LANA-H2A/H2B peptide, fluorescence polarization. inhibition, % (no concentration beside the values). hit rate 0.6% among 320,000. AID 2629; in the data active = inhibition mostly above about 10%, no sharp cut-off; inactive = mostly below about 6.7%;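 also: stock transfer was 7.5 nL into about 10 µL; 0% = median of vehicle wells and 100% = median of positive control wells; one replicate is shown; the record names a cut of 25% in any replicate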
Target sequence (Q9QR71 whole entry, looked up): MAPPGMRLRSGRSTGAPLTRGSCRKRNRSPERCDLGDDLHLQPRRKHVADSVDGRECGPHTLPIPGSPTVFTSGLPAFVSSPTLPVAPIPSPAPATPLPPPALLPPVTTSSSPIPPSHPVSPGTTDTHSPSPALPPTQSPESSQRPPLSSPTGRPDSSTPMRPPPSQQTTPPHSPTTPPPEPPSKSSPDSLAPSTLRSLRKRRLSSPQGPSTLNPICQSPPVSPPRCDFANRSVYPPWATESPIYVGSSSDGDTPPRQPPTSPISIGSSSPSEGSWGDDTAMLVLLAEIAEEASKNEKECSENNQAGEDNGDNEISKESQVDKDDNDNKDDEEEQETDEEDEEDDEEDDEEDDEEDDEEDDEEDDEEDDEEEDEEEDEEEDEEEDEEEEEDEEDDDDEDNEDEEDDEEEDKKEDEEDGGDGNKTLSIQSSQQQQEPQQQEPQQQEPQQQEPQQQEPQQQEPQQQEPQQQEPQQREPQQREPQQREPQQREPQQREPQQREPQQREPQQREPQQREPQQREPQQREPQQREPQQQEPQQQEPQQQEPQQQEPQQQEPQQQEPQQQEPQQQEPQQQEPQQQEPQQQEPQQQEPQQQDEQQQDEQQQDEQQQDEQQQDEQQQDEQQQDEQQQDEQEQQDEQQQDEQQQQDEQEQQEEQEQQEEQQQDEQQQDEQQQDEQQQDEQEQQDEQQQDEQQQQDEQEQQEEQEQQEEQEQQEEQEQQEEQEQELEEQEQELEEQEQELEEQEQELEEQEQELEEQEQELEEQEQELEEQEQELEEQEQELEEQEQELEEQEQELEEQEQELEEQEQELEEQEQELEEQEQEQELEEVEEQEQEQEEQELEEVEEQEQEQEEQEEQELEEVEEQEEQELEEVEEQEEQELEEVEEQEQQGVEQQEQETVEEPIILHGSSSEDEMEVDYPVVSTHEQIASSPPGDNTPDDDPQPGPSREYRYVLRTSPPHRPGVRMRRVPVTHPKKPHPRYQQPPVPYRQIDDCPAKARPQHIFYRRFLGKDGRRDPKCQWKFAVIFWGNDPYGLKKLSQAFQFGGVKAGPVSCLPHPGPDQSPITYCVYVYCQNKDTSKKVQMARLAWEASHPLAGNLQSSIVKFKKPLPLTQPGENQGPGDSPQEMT
UCH37 inh: human UCH37 deubiquitinating enzyme inhibition | purified proteasome/UCH37, Ub-AMC cleavage fluorescence | hit rate 0.33% among 330,000 | inhibition, % (test concentration not listed) | Q9Y5K5;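 active = mean of two replicates above 20%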;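 also: 0% = compound-free wells with enzyme and 100% = wells lacking proteasome; stock transfer was 100 nL into about 20 µL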
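Test system – human UCH37 enzyme supplied as purified proteasome complex · Incubation – 30 min preincubation with enzyme, 25 min cleavage at room temperature · Detection – AMC fluorescence from Ub-AMC cleavage, excitation 355 nm, emission 460 nm · Benchmarks – no-proteasome wells (full inhibition) and compound-free wells (no inhibition)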
Ecoli growth: E. coli growth inhibition. AID 1053175. hit rate 0.21% among 330,000. OD600 absorbance (no concentration beside the values). Escherichia coli growth, OD600, 23 h; hits give low values;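 active = OD600 absorbance below the run mean of sample wells minus 3.6 SD, in any replicate, cut at about 0.56 in these data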;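 also: stock transfer was 300 nL into about 60 µL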
Beta2AR agonist: activates human beta-2 adrenergic receptor causing internalization; P07550; hit rate 0.43% among 340,000; response, % (test concentration not listed); Am2.2-beta2AR cells, FAP receptor internalization, flow cytometry; reference of the scale not given here;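 active = response above a set limit, near 3 SD of response in nonfluorescent compounds, cut at about 42% in these data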;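 also: stock transfer was 100 nL into about 11 µL; a reference agonist was the positive control; negative values mostly stem from fluorescent compounds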
Active calls of the source: *; ? = inconclusive; . = no result given.

compound | Vif TR-FRET | Beta2AR agonist | Ecoli growth | UCH37 inh | LANA-H2B inh | HNF4A DNA FP | Bfl-1 A1 inh
O=S(=O)(c1ccc(F)cc1)n1ccc(-c2cnc(-c3ccccc3)s2)n1 | 2% | 3 | 0.71 | -8.8 | -0.2 | 3.7 | 0.1
CCCC(=O)Nc1c2c(nn1-c1ccc(C)cc1C)CSC2 | ? | -3 | 0.66 | 0.7 | 7.6 | -0.1 | -0.1
COc1ccc(CC(=O)NCC2CCCN(Cc3ccc(F)c(OC)c3)C2)cc1 (stereo not drawn) | . | 3 | 0.65 | 1.4 | -4.7 | -0.5 | 0.0
O=S(=O)(Nc1ccccc1N1CCOCC1)c1ccc(Cl)s1 | 10% | 0 | 0.69 | 3.0 | 4.0 | -1.6 | 0.9
COc1ccccc1NC(C#N)c1ccccc1OCc1ccccc1 (stereo not drawn) | 0% | 23 | 0.64 | -2.6 | 3.3 | -0.5 | 0.0
CC(C)c1nc(SCC(=O)c2ccc(F)cc2)c2ccccc2n1 | 7% | -7 | 0.7 | 0.1 | -0.7 | -5.7 | 0.1
Cc1cnc(C(=O)OCC(=O)N2CCN(S(=O)(=O)c3ccc(Cl)cc3)CC2)cn1 | 8% | -3 | 0.68 | 0.2 | -2.4 | 0.8 | -0.3
CCOC(=O)c1c(C)[nH]c(C(=O)OCC(=O)NC(C)(C)C)c1C | 29% | 0 | 0.65 | 0.3 | 1.7 | 5.2 | 0.3
Cc1noc(C)c1C(=O)OCC(=O)Nc1ccc(C(N)=O)cc1 | . | -1 | 0.71 | 3.2 | -407 | -1.9 | -0.3
Cc1cccc(OCC(=O)Nc2nc3ccc([N+](=O)[O-])cc3s2)c1C | 2% | 1 | 0.69 | 5.2 | 2.4 | -1.4 | 0.5
COc1cccc(C(=O)NC(=S)Nc2ccc(N(C)C)cc2)c1 | 21% | 2 | 0.73 | 5.5 | -1.7 | 2.6 | -2.9
O=C(Nc1ccccc1C(=O)N1CCN(Cc2ccccc2)CC1)c1ccccn1 | -7% | 1 | 0.75 | 2.9 | 4.7 | -3.2 | 1.4
O=C(NCc1ccco1)c1cc(C(=O)C2CCCCC2)c[nH]1 | -2% | -3 | 0.71 | -0.1 | -5.1 | -3.0 | 0.0
c1ccc(-c2nc(-n3ccnc3)nc(-n3ccnc3)n2)cc1 | -9% | 6 | 0.69 | 3.5 | 1.6 | -0.3 | 0.2
CCCCN1C(=O)/C(=C2\SC(N3CCCCC3)=NC2=O)c2ccccc21 | 13% | -16 | 0.71 | 5.4 | 0.1 | 5.8 | -1.8

Next results.
compound | Vif TR-FRET | Beta2AR agonist | Ecoli growth | UCH37 inh | LANA-H2B inh | HNF4A DNA FP | Bfl-1 A1 inh
COc1ccc(/C=C(\NC(=O)c2ccc(C)cc2)C(=O)N2CCCCC2)cc1 | -6% | 8 | 0.68 | 3.7 | 2.5 | -1.9 | -1.6
O=C(CSc1nnc(-c2ccccc2O)o1)N1CCc2ccccc2C1 | 23% | -1 | 0.67 | -0.1 | -2.9 | -2.9 | 1.0
Cn1nc(C(=O)Nc2cccc(C(=O)NC3CC3)c2)c2ccccc2c1=O | 2% | 0 | 0.67 | 3.8 | 2.4 | 1.5 | -0.1
CNS(=O)(=O)c1cc(NC(=O)CCCNC(=O)c2ccc(Cl)cc2)ccc1C | . | -1 | 0.7 | -1.4 | 1.8 | -1.9 | 0.8
Cc1ccc(C(=O)OC2CCCN(C)C2)cc1 (stereo not drawn) | . | -2 | 0.75 | 2.4 | 0.7 | 0.1 | -0.1
COc1ccc(OC)c(NC(=O)CSc2ccc3ccccc3c2)c1 | 2% | 1 | 0.76 | 3.5 | -3.6 | 2.0 | 0.0
COCc1ccc(C(=O)N2CCCC(Nc3ccc(C(C)C)cc3)C2)s1 (stereo not drawn) | . | 5 | 0.69 | 2.8 | -4.3 | 1.6 | -0.3
Cc1ccc(C(=O)Nc2nc(C(C)(C)C)cs2)s1 | -9% | 7 | 0.74 | 3.9 | -2.3 | -0.8 | -1.0
O=C(NC1CCCC1)c1cc2nc(-c3ccccc3)cc(-c3ccccc3)n2n1 | -11% | -9 | 0.68 | -196 | -6.8 | 0.6 | 0.0
O=C(Nc1ccc2c(c1)OCCO2)c1cc(F)c(F)cc1Cl | . | -9 | 0.65 | 3.1 | -2.5 | -1.2 | -3.2
Cc1cc(C(=O)OC2CCOC2=O)c2ccccc2n1 (stereo not drawn) | 98% | 5 | 0.64 | -6.8 | -3.8 | 1.7 | 0.8
O=C(Nc1ccc(NC(=O)C2CC2)nc1)c1ccco1 | -3% | -21 | 0.72 | -0.6 | 2.0 | 0.5 | 0.3
Cc1ccc2nc(-c3ccc(SCC(=O)Nc4nc(C)cs4)nc3)[nH]c2c1 | . | 6 | 0.68 | -6.7 | -4.8 | 6.7 | -3.6
NC(=O)C1=C[C@@H](c2ccc(Br)cc2)C[C@@H](OCc2ccc(CO)cc2)O1 | -1% | -2 | . | 0.9 | -11 | 9.7 | -0.7
O=C(COc1ccccc1[N+](=O)[O-])OCC(=O)c1ccc(Br)s1 | -99% | 5 | 0.67 | 3.9 | 1.5 | 3.5 | 0.0

(listing goes on)
compound | Vif TR-FRET | Beta2AR agonist | Ecoli growth | UCH37 inh | LANA-H2B inh | HNF4A DNA FP | Bfl-1 A1 inh
O=[N+]([O-])c1cccc(-c2nnnn2-c2cccc(F)c2)c1 | . | -7 | 0.7 | 1.7 | 0.6 | -2.3 | 0.5
CN(C)C(CNC(=O)CCc1nc2ccccc2s1)c1ccccc1 (stereo not drawn) | . | 0 | 0.66 | 1.7 | -2.1 | 1.5 | -0.3
CC1CCCC(C)N1C(=O)COC(=O)CNC(=O)c1ccc(Cl)cc1Cl (stereo not drawn) | -1% | -3 | 0.68 | 3.0 | 1.5 | 1.9 | 0.4
Cc1cccc(Nc2nnc(SCC3CCCCO3)s2)c1 (stereo not drawn) | 5% | -3 | 0.67 | 3.0 | -4.5 | -1.2 | -4.4
Cc1ccnc(NC(=O)Cc2ccc(F)cc2)n1 | 10% | 0 | 0.65 | 6.0 | -0.4 | -3.7 | 0.0
CSC1=NCCN1S(=O)(=O)c1ccc(C)cc1 | -2% | -1 | 0.69 | 1.7 | 12 | 1.5 | 0.4
Cc1ccc(-c2nc(-c3ccc(Cl)cc3)sc2CC(=O)O)c(C)c1 | -5% | 5 | 0.64 | -3.6 | 3.4 | -1.8 | -0.3
CC(=O)Nc1ccc(NC(=O)Cn2cc3c(n2)CCC(C)C3)cc1 (stereo not drawn) | 12% | . | 0.73 | -1.6 | . | . | .
O=C(CSCc1ccccc1Br)NNC(=S)NCc1ccco1 | . | 5 | 0.7 | 0.0 | 0.6 | 1.8 | 0.0
O=C(Nc1ccc(Cc2ccc(NC(=O)C3CC3)c(O)c2)cc1O)C1CC1 | 1% | 3 | 0.65 | 1.5 | -0.8 | -2.8 | 0.4
CCOc1ccc(S(=O)(=O)N2CCC(C(=O)OCc3cccc(OC)c3OC)CC2)cc1 | -14% | 7 | 0.72 | 1.1 | -1.6 | -1.7 | 1.2
O=C(O)c1ccc(-c2nc3ccccc3s2)o1 | . | 0 | 0.72 | -40 | 5.8 | 3.0 | -7.1
COc1ccccc1N1CCN(C(=O)CCS(=O)(=O)c2ccc3c(c2)oc(=O)n3C)CC1 | . | 0 | 0.7 | 0.8 | -1.3 | 2.3 | -0.8
O=C(NCCc1ccccc1)C(c1ccncc1)N(C(=O)c1csnn1)C1CC1 (stereo not drawn) | 21% | -2 | 0.68 | 3.9 | 3.0 | -2.7 | -0.5
O=c1[nH][nH]c(=O)c(Cl)c1Cl | -1% | -11 | 0.69 | 3.8 | . | 4.6 | .

Another view of part of the listing above:
Values in the order – Vif TR-FRET | Beta2AR agonist | Ecoli growth | UCH37 inh | LANA-H2B inh | HNF4A DNA FP | Bfl-1 A1 inh
Cc1ccc(-c2nc(-c3ccc(Cl)cc3)sc2CC(=O)O)c(C)c1
    -5% | 5 | 0.64 | -3.6 | 3.4 | -1.8 | -0.3
O=C(CSCc1ccccc1Br)NNC(=S)NCc1ccco1
    . | 5 | 0.7 | 0.0 | 0.6 | 1.8 | 0.0

Further entries.
compound | Vif TR-FRET | Beta2AR agonist | Ecoli growth | UCH37 inh | LANA-H2B inh | HNF4A DNA FP | Bfl-1 A1 inh
Cc1ccc(NC(=O)CCC(=O)NNC(=O)/C=C/C(=O)O)c(C)c1 | ? | 3 | 0.7 | 4.6 | 2.2 | 1.1 | 0.2
CSc1nc2nc3c(cc2c(=O)[nH]1)C(O)Oc1ccc(C)cc1-3 (stereo not drawn) | -14% | 0 | 0.62 | -83 | -3.6 | -0.1 | 0.0
COc1cccc2c1N1C(=O)c3c(C(=O)O)cccc3C1CC2(C)C (stereo not drawn) | 30% | 3 | . | . | . | -3.7 | .
Cc1cc(C)nc(Nc2ccc(N3CCOCC3)cc2)n1 | ? | 0 | 0.72 | -0.3 | 8.6 | 0.6 | -0.3
O=C(O)c1ccccc1-c1nc2ccccc2c(=O)[nH]1 | 1% | 3 | 0.71 | 0.5 | -1.2 | -2.2 | -0.7
O=C(O)c1ccc(Cl)c(S(=O)(=O)Nc2ccccc2N2CCOCC2)c1 | 23% | 0 | 0.68 | 1.6 | 1.9 | 2.9 | 0.5
CCOCCCNC(=O)/C(C#N)=C/c1ccccc1F | 2% | 3 | 0.71 | 1.3 | 1.1 | 2.6 | -0.6
N#Cc1ccccc1COC(=O)CCN=C1NS(=O)(=O)c2ccccc21 | -4% | 8 | 0.66 | 1.4 | 0.3 | 0.9 | 0.4
COc1cccc2c(=O)n(CC(=O)Nc3ccc(F)cc3)ccc12 | 13% | -3 | 0.71 | -11 | -0.9 | -2.0 | 2.1
COc1ccccc1C1c2[nH]c3ccccc3c2CCN1Cc1cnc(C)s1 (stereo not drawn) | -1% | 3 | 0.68 | -24 | . | 1.6 | .
CCOC(=O)Cn1c(=O)oc2cc(S(=O)(=O)N(C)c3cccc(C)c3)ccc21 | 0% | 15 | 0.66 | -0.9 | -1.9 | 5.9 | -0.2
O=C(NC(=S)Nc1ccc2ncccc2c1)c1ccccc1 | -21% | -2 | 0.73 | 2.4 | -1.1 | -3.3 | -0.8
Cc1n[nH]c(=O)c2c(NC(=O)CSc3ccccc3F)oc(C)c12 | 2% | 0 | 0.62 | 3.2 | -0.1 | -0.4 | 0.1
O=C(NCCCc1ccccc1)c1cccc(Br)c1 | . | 0 | 0.61 | 7.6 | 2.0 | 4.8 | 0.4
O=C(NCCCNC(=O)c1cnccn1)c1cccc(Cl)c1 | . | 6 | 0.7 | 2.1 | 2.5 | -0.1 | 1.5

(cont.)
compound | Vif TR-FRET | Beta2AR agonist | Ecoli growth | UCH37 inh | LANA-H2B inh | HNF4A DNA FP | Bfl-1 A1 inh
Cc1cccc(OCC(=O)Nc2ccc(C(=O)Nc3ccccc3C(=O)O)cc2)c1C | . | -1 | 0.59 | 1.3 | -9.4 | -4.3 | -0.1
CCc1ccc(OCC(=O)O/N=C(\N)c2ccncc2)c(Br)c1 | . | -7 | 0.7 | -0.1 | 3.3 | 3.6 | 0.0
Cc1cc(N/N=C/c2ccc(N(C)C)cc2)c2ccccc2n1 | -1% | -8 | . | . | 9.7 | 0.4 | 0.5
COc1ccc(Nc2nc(N)nc(CN3CCOCC3)n2)cc1 | 1% | 2 | 0.73 | 0.5 | 3.7 | 0.5 | 0.9
COc1ccc(CNC2CC(C)N(C)CC2C)cc1OC (stereo not drawn) | . | 0 | 0.68 | 0.0 | 3.8 | 4.7 | 0.3
CCn1c(=O)c(C(=O)Nc2nc3ccccc3[nH]2)c(O)c2ccccc21 | 2% | -8 | 0.76 | -6.0 | -1.3 | -2.2 | -0.7
